Screening data as filed in PubChem.
rRNA inh HTS = reduced GFP signal of wild-type E. coli, primary screen, bacterial rRNA inhibitor project, GFP/RFP fluorescence, OD600, single point; E. coli WT GFP vs humanized-ribosome RFP mutants, 24 h; active compounds read low; DMSO median 0, no signal -100; GFP signal change (wild-type ribosome), % (test concentration not listed); 350,000 compounds, 1.6% hits;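 active = significant combined selectivity score with lowered wild-type GFP, culture density cut under 30%, mutant RFP and density less affected; inactive = any of these conditions unmet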; also: one replicate is shown; some compounds called inactive have numbers as strong as hits
Vif A3G = inhibitors of Vif binding to APOBEC3G peptide, primary screen, biochemical, TR-FRET, GST-Vif 1-94, biotin-A3G peptide, dose response retest (AID 1117319); Virion infectivity factor (Human immunodeficiency virus type 1 group M subtype B (isolate …; TR-FRET GST-Vif / biotin-A3G peptide binding; higher % means a stronger effect; test concentration not given here; strong numbers were not always called active; one-dose inhibition, %; IC50 in µM for titrated hits; 260,000 compounds, 0.57% hits;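 active = above the screen mean plus three standard deviations and confirmed in dose response; inconclusive = results disagree or hit not tested in dose response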;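 also: Vif residues 1-94 fused to GST binding biotinylated APOBEC3G peptide 110-148; 0% = full assay without inhibitor and 100% = GST in place of GST-Vif; retest series ran down from 100 µM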
ALR H2O2 inh = inhibitors of human ALR sulfhydryl oxidase, primary screen, biochemical, H2O2 detection, HRP-luminol luminescence, single point; FAD-linked sulfhydryl oxidase ALR (Homo sapiens), P55789; purified ALR, DTT oxidation; inhibition, % (concentration not given with the values); 290,000 compounds, 3.8% hits; AID 485317, 2010;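 active = mean and each replicate at 75% or more; inconclusive = only one of the two met; inactive = neither met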;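 also: stock transfer was 7.5 nL into about 7.5 µL; 0% = neutral wells and 100% = wells with inactivated enzyme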
Target sequence (P55789 whole entry, looked up): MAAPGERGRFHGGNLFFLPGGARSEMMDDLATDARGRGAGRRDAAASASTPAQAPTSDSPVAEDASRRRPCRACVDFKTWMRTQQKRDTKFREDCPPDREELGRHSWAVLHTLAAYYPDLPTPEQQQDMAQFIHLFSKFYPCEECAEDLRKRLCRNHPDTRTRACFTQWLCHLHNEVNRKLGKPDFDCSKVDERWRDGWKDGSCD
HNF4A DNA FP = change in binding of human HNF4A to DNA, primary screen, biochemical, fluorescence polarization, FITC-DNA; Hepatocyte nuclear factor 4-alpha (Homo sapiens), P41235; 1 h; activity change, % at 10 µM; 360,000 compounds, 0.3% hits; in the data active = activity change above about 30%, passing the limit was not always enough;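 also: controls were the assay level and a saturating level of protein; the project sought stronger binding though the title names inhibitors; some compounds called inactive have numbers as strong as hits; positive values seem to mean higher polarization but the record does not say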
Target sequence (P41235 whole entry, looked up): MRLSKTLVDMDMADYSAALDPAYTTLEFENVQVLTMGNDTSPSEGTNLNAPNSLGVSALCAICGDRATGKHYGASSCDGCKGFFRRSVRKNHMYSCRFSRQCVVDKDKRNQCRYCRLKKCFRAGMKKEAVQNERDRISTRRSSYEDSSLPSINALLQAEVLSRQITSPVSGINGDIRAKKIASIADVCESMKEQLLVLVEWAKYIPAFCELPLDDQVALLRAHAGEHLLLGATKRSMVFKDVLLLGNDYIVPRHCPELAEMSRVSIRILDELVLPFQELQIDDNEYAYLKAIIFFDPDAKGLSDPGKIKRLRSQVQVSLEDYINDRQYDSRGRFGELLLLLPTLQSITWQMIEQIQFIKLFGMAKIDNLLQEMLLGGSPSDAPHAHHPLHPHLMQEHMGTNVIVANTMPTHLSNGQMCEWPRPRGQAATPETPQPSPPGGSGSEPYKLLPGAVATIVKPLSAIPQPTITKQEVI
E coli growth = E. coli growth inhibition, primary screen, OD600. OD600 absorbance (no concentration beside the values). 330,000 compounds, 0.21% hits. Escherichia coli growth, 23 h; active compounds read low;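 active = OD600 absorbance below the run mean of sample wells minus 3.6 SD, in any replicate, cut at about 0.56 in these data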;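 also: stock transfer was 300 nL into about 60 µL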
FGF22 binding = binders of human FGF22 protein, primary screen, FGF22 synaptogenesis inhibitor project, biophysical, thermal shift, single point | AID 651658, 2012 | recombinant FGF22 thermal shift, SYPRO orange fluorescence; percent of sucrose octasulfate shift, DMSO zero | calls only at 9.99 µM | 340,000 compounds, 1.5% hits | Fibroblast growth factor 22 (Homo sapiens), Q9HCT0;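 active = melting point raised past a set limit in the mean and every replicate; inconclusive = no clear call; three in four hits are not shown here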
Target sequence (Q9HCT0 whole entry, looked up): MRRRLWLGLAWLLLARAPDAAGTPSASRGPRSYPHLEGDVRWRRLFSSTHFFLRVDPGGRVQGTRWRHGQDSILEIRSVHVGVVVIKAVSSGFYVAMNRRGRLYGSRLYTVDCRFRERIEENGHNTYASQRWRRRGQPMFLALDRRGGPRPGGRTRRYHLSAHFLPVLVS
MLL AF4-AF9 inh = inhibitors of AF4 peptide binding to AF9, primary screen, biochemical, AlphaScreen, biotin-AF4 peptide, FLAG-AF9, single point; Protein AF-9 (Homo sapiens), P42568; inhibition, % at 10 µM; 350,000 compounds, 0.47% hits;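 active = every replicate reaching a set inhibition limit, whatever the replicate mean, cut at about 25% in these data; inconclusive = mean inhibition reaches that limit but some replicates miss it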;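 also: 0% = plate neutral control median and 100% = total signal loss; the record names both 10 and 1 µM as test concentration; the first replicate is given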
rRNA inh HTS OD600 = also measured in rRNA inh HTS; calls as there; OD600 change, %; measured here: OD600 growth;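 optical density of the mix in the first replicate; 0 = DMSO median and -100 = no signal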
rRNA inh HTS RFP = also measured in rRNA inh HTS; calls as there; RFP signal change, %; measured here: RFP humanized mutant strains;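 first replicate; 0 = DMSO median and -100 = no signal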
An asterisk follows results filed as active; i = inactive; ? = inconclusive; . = no result given. An excerpt, so the mix of outcomes need not match the whole.

SMILES | rRNA inh HTS | rRNA inh HTS OD600 | rRNA inh HTS RFP | Vif A3G | ALR H2O2 inh | HNF4A DNA FP | E coli growth | FGF22 binding | MLL AF4-AF9 inh
C=CCNC(=O)C1CC1(c1cccc(C)c1)c1cccc(C)c1 (centres undefined) | -22 | -13 | 8.1 | . | 10 | 1.8 | 0.67 | i | 1.8
COc1ccc(-c2cc(C(F)(F)F)nc(SCC(=O)NCCN3CCOCC3)n2)cc1OC | 7 | 4 | 5.1 | -2% | 6 | 0.8 | 0.7 | . | .
CCCc1cc(=O)n2[nH]c(SCc3ccccc3)nc2n1 | . | . | . | 27% | 13 | 5.2 | 0.7 | . | .
Nc1cc(N)nc(SCc2cccc(F)c2)n1 | 11 | 6 | 7.8 | . | 10 | 0.2 | 0.68 | i | 0.9
Cc1cccc(C(=O)O/N=C2\CCS(=O)(=O)c3sccc32)c1 | . | . | . | 29% | -11 | 0.3 | . | . | .
COc1ccc(CC(=O)OCC(=O)Nc2ccc3[nH]c(=O)[nH]c3c2)cc1 | 4 | 9 | -1.2 | 6% | -8 | -1.6 | 0.66 | i | -0.5
CC1CCCN(CCOc2ccc(Br)cc2)C1 (centres undefined) | . | . | . | -1% | 1 | 2.2 | 0.62 | . | .
Brc1cnc(N2CCCC2)nc1N1CCCCC1 | -32 | -43 | -10 | ? | -7 | 1.7 | 0.73 | i | -6.5
COc1cccc(-c2cc(NC(C)=O)c3ncc(-c4cccc(C(C)=O)c4)n3c2)c1 | 3 | 3 | 22 | . | . | 7.4 | . | i | 1.0
CC(C)Cc1nnc(NC(=O)CCC(=O)NCc2ccccc2Cl)s1 | -7 | -7 | -4.2 | -5% | -6 | -1.6 | 0.67 | i | -3.9
C[C@H](CO)N1C[C@H](C)[C@H](CN(C)Cc2cccc(C(=O)O)c2)Oc2cc(C3=CCCC3)ccc2S1(=O)=O | 2 | 5 | -4.6 | . | . | . | . | i | -1.8
CCOC(=O)c1oc2ccccc2c1CSc1nnc(-c2ccco2)o1 | . | . | . | 13% | -1 | 1.5 | 0.68 | . | .
CCOCCCNC(=O)c1ccc(CS(=O)(=O)Cc2ccc(C)cc2)o1 | . | . | . | -6% | -3 | 5.0 | 0.71 | . | .
CCOc1ccccc1-n1c(SCC(=O)NC(C)(C)C)nnc1-c1ccoc1C | . | . | . | -5% | 3 | 6.9 | 0.72 | . | .
CN(C)c1nc2c(N)ncnc2n1[C@H]1O[C@@H](CO)[C@H](O)[C@@H]1O | 11 | 9 | -0.8 | 3% | 3 | 1.4 | 0.68 | i | -2.6
CCOc1ccccc1NC(=O)c1cc(SC)ccc1Cl | -30* | -11* | -0.6* | -5% | -7 | 1.9 | 0.69 | i | -4.3
Cc1nc(CNS(=O)(=O)c2cc([N+](=O)[O-])ccc2C)cs1 | 10 | 5 | -5.6 | 0% | -6 | -2.1 | 0.7 | i | -24
COc1ccc(C(=O)N2CCC(n3c(C)nc4cc(F)ccc43)CC2)cc1OC | . | . | . | -1% | -8 | 0.7 | 0.72 | . | .
O=C(CSc1nncs1)Nc1cc(S(=O)(=O)N2CCOCC2)ccc1N1CCCC1 | 0 | 1 | -0.6 | -5% | . | -0.7 | 0.69 | i | 0.2
CN(CC(=O)Nc1ccc(F)cc1)C(=O)CCc1nc2ccccc2c(=O)[nH]1 | 16 | 26 | 15 | -4% | -15 | -0.4 | 0.65 | i | -20
CC=Cc1ccc2n(c1=O)C[C@H]1[C@H](CO)[C@@H](C(=O)NCC)[C@@H]2N1C(=O)C1CC1 (mixture of isomers) | 2 | 4 | -2.1 | . | . | . | . | i | 1.9
COc1cc(/C=C/C(=O)O)ccc1OS(=O)(=O)c1c(C)cc(C)cc1C | 2 | 8 | -1.8 | 18% | -5 | 1.2 | 0.73 | i | -8.9
Clc1ccccc1Nc1c2c(nc3ncnn13)CCC2 | . | . | . | 77% | -1 | -1.6 | 0.72 | . | .
CCCN1CCN(CCCNC(=O)C2CCN(c3nnc(-n4c(C)ccc4C)s3)CC2)CC1 | 19 | 17 | 0.7 | . | 12 | 2.9 | 0.66 | i | 6.0
CS(=O)(=O)Nc1ccc2c(c1)[C@H]1C[C@H](CC(=O)N3CCc4ccccc4C3)O[C@H](CO)[C@H]1O2 | 2 | 13 | 1.5 | . | . | . | . | i | -1.2

Fetched by structure from above:
SMILES | rRNA inh HTS | rRNA inh HTS OD600 | rRNA inh HTS RFP | Vif A3G | ALR H2O2 inh | HNF4A DNA FP | E coli growth | FGF22 binding | MLL AF4-AF9 inh
COc1cc(/C=C/C(=O)O)ccc1OS(=O)(=O)c1c(C)cc(C)cc1C | 2 | 8 | -1.8 | 18% | -5 | 1.2 | 0.73 | i | -8.9
CCOC(=O)c1oc2ccccc2c1CSc1nnc(-c2ccco2)o1 | . | . | . | 13% | -1 | 1.5 | 0.68 | . | .
CN(C)c1nc2c(N)ncnc2n1[C@H]1O[C@@H](CO)[C@H](O)[C@@H]1O | 11 | 9 | -0.8 | 3% | 3 | 1.4 | 0.68 | i | -2.6

Going on with the list.
SMILES | rRNA inh HTS | rRNA inh HTS OD600 | rRNA inh HTS RFP | Vif A3G | ALR H2O2 inh | HNF4A DNA FP | E coli growth | FGF22 binding | MLL AF4-AF9 inh
COc1cccc(/C=C2\Oc3cc(OCC(=O)N4CCC[C@H]4C(=O)O)ccc3C2=O)c1 | -1 | -1 | -7.5 | . | ? | -4.2 | 0.64 | i | 2.9
NNC(=O)CN1C(=O)Nc2ccc(Br)cc2C1c1ccccc1 (centres undefined) | 3 | -1 | 0.2 | ? | 18 | 1.8 | 0.62 | i | -95
O=c1[nH]c2ccccc2n1CCC1CCCCC1 | -57 | -81 | -36 | -4% | 2 | -3.1 | 0.72 | i | 14
Cc1cc(NC(=O)/C=C/c2ccccc2)c(C(C)C)cc1O | -12 | -5 | -0.3 | -1% | 18 | 4.6 | 0.65 | i | 5.6
O=C(NCC[C@H]1CC[C@@H](NC(=O)C2CCCC2)[C@H](CO)O1)c1ccc(F)cc1 | 0 | 0 | 0.2 | . | . | . | . | i | -1.7
CC1CCCCN1CCCNC(=O)c1ccc(N2CCCC2=O)cc1 (centres undefined) | 4 | 14 | 0.5 | . | -1 | 3.1 | 0.75 | i | 8.5
CN1CCN(CC(=O)N2c3ccccc3Sc3ccccc32)CC1 | -4 | 6 | -2.5 | -7% | . | 1.9 | 0.65 | i | 1.6
CCCS(=O)(=O)c1c(S(=O)(=O)CCC)c2c(C)cccn2c1C(N)=O | . | . | . | 20% | -3 | -4.5 | 0.7 | . | .
CCOC(=O)c1cc(-c2ccccc2)sc1N | . | . | . | 9% | 99* | 2.3 | 0.65 | . | .
Cn1nc(-c2ccccc2)c(CO)c1Oc1ccc(F)cc1 | 10 | 3 | 0.2 | -6% | -13 | 0.6 | 0.72 | i | 1.2
Cc1cccc(S(=O)(=O)N(C)C[C@@H]2OCc3cn(nn3)CCCC(=O)N([C@H](C)CO)C[C@@H]2C)c1 | -3 | -7 | -1.1 | . | . | . | . | i | -0.1
CCCCCC(=O)Nc1ccc(S(=O)(=O)Nc2nccc(C)n2)cc1 | 4 | 4 | -1.4 | . | 1 | 0.2 | 0.68 | i | -1.7
O=C(N/N=C/c1ccc(Br)s1)c1ccccc1[N+](=O)[O-] | . | . | . | 3% | 8 | 3.5 | . | . | .
CC(Oc1cc2oc(=O)c3c(c2cc1Cl)CCCC3)C(=O)NCc1ccccn1 (centres undefined) | -8 | -11 | -3.1 | . | -80 | 0.8 | 0.63 | i | -3.8
Cn1nc(C(=O)N2CCc3ccccc32)c2ccccc2c1=O | 5 | -1 | -1.6 | 25% | -17 | 2.5 | 0.68 | i | -7.5
COc1ccc(C(=O)C(C)OC(=O)CNC(=O)C2CCCCC2)cc1 (centres undefined) | -5 | 3 | -3.5 | . | -2 | 2.4 | 0.68 | i | 0.3
CN(Cc1ccccc1)C(=O)c1cnc(Cc2c[nH]c3ccccc23)c(I)c1 | -26 | -23 | -0.1 | . | . | 1.6 | . | i | 0.1
O=C(C[C@@H]1CC[C@H](NC(=O)c2ccccc2)[C@H](CO)O1)NCc1ccncn1 | 4 | 2 | 1.2 | . | . | . | . | i | 0.7
C[C@H](CO)N1C[C@H](C)[C@H](CN(C)S(=O)(=O)c2cccs2)Oc2ccc(NS(=O)(=O)c3ccc(F)cc3)cc2CC1=O | 2 | -4 | 0.4 | . | . | . | . | i | 2.5
COc1ccc2c(c1OC)C(=O)N1C2SC[C@H]1C(=O)NC1CC(C)(C)NC(C)(C)C1 (some centres undefined) | . | . | . | ? | . | -4.3 | 0.72 | . | -6.1
CCc1ccc(-n2c(=S)sc3c(=O)n(-c4ccccc4)c(SCC(=O)O)nc32)cc1 | -28 | -31 | -11 | 4% | . | -4.2 | 0.67 | . | -0.7
CCc1ccccc1N(C)S(=O)(=O)c1ccc2[nH]cc(C(=O)O)c(=O)c2c1 | . | . | . | 12% | 1 | -1.4 | 0.69 | . | -1.4
C[C@@H]1CN([C@H](C)CO)C(=O)Cc2cc(NC(=O)CCC(F)(F)F)ccc2O[C@H]1CN(C)C(=O)Nc1ccccc1 | 5 | 8 | -1.6 | . | . | . | . | i | -4.2
COc1ccc(NC(=O)N(C)C[C@@H]2Oc3ccc(NC(=O)Nc4ccccc4)cc3CC(=O)N([C@H](C)CO)C[C@H]2C)cc1 | -2 | 4 | 0.9 | . | . | . | . | i | -1.6
CCOc1cc(C(=O)Nc2ncn[nH]2)cc(OCC)c1OCC | 9 | 17 | -2.6 | . | -5 | -0.3 | 0.7 | i | 0.1
CCOC(=O)CC(S(=O)(=O)c1ccccc1)S(=O)(=O)c1ccccc1 | 7 | 28 | 2.5 | . | . | 2.0 | . | i | -0.1
Cc1noc(C)c1S(=O)(=O)Nc1ccc2c(c1)C(=O)N([C@H](C)CO)C[C@@H](C)[C@H](CN(C)CC1CCCCC1)OCCCC[C@H](C)O2 | -1 | -2 | 4.3 | . | . | . | . | i | 14

2 entries from above, as labelled records.
> O=C(NCC[C@H]1CC[C@@H](NC(=O)C2CCCC2)[C@H](CO)O1)c1ccc(F)cc1
  rRNA inh HTS = 0 | rRNA inh HTS OD600 = 0 | rRNA inh HTS RFP = 0.2 | Vif A3G = . | ALR H2O2 inh = . | HNF4A DNA FP = . | E coli growth = . | FGF22 binding = i | MLL AF4-AF9 inh = -1.7

> CC1CCCCN1CCCNC(=O)c1ccc(N2CCCC2=O)cc1 (centres undefined)
  rRNA inh HTS = 4 | rRNA inh HTS OD600 = 14 | rRNA inh HTS RFP = 0.5 | Vif A3G = . | ALR H2O2 inh = -1 | HNF4A DNA FP = 3.1 | E coli growth = 0.75 | FGF22 binding = i | MLL AF4-AF9 inh = 8.5
